# Vaccinia stage: Vaccinia orthopox stage-specific inhibition; Vaccinia-infected cells, mCherry/Venus stage reporter fluorescence; active compounds read low; some inactives read as strong as hits; activity change (mCherry), % (test concentration not listed); 89,000 tested, 0.01% active; AID 1053133;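 active means mCherry past -33% and 40 or more points under the early reporter, replicates agreeing; inconclusive means past -33% without that gap or agreement; tested in A549 cells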;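 further: scaled between vehicle wells and reference inhibitor wells; 23 nL library stock went into each well; one replicate is shown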
# Vaccinia stage Venus: recorded beside Vaccinia stage, whose call it bears; activity change (Venus), %; measured here: Venus reporter, other viral stage;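 negative = less Venus signal; first of two replicates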
# * marks the source's active call; other numbers are inactive results; u = inconclusive; x = no result given; & = joins results of further samples. These rows are one share of the data, so the mix of outcomes need not match the whole.
SMILES,Vaccinia stage,Vaccinia stage Venus
COc1ccc(CNC(=O)C[C@@H]2C=C[C@H](NC(=O)Nc3ccc4c(c3)OCO4)[C@@H](CO)O2)cc1,1,2
C[C@H](CO)N1C[C@H](C)[C@@H](CN(C)S(=O)(=O)c2cccs2)Oc2ccc(NC(=O)Cc3ccccc3)cc2C1=O,-1,0
CCCC#Cc1ccc([C@H]2[C@H](CO)N3C(=O)CN(C(=O)NC4CCCC4)C[C@@H]23)cc1,14,3
Cc1ccc(S(=O)(=O)Nc2ccc3c(c2)C(=O)N([C@@H](C)CO)C[C@H](C)[C@@H](CN(C)C(=O)NC2CCCCC2)O3)cc1,6,-9
CO[C@@H]1CN(C)C(=O)c2ccc(NS(=O)(=O)c3ccc(Cl)cc3)cc2OC[C@@H](C)N(C)C[C@@H]1C,36,10
COc1ccc(NC(=O)N(C)C[C@@H]2OCCCC[C@H](C)Oc3ccc(NS(=O)(=O)c4cn(C)cn4)cc3C(=O)N([C@@H](C)CO)C[C@@H]2C)cc1,16,7
C/C=C/c1ccc2c(c1)[C@@H]1[C@@H](CCN1C(=O)Cc1cccnc1)[C@H](CO)N2C,6,7
C[C@@H]1CN([C@@H](C)CO)C(=O)c2cc(NC(=O)CCC(F)(F)F)ccc2O[C@H]1CN(C)C(=O)Nc1cccc2ccccc12,3,-1
CC(=O)N[C@H]1C=C[C@@H](CC(=O)NCc2ccc(Cl)cc2)O[C@H]1CO,12,8
COCC(=O)N1[C@H](C#N)[C@@H](c2ccccc2-c2ccccc2)[C@@H]1CO,-1,-2
COc1cccc(-c2ccc3c(c2)[C@@H]2[C@@H](CCN2C(=O)NC2CCCCC2)[C@@H](CO)N3C)c1,u,x
CO[C@@H]1CN(C)C(=O)c2cc(NS(=O)(=O)CC(F)(F)F)ccc2OC[C@H](C)N(C(=O)NC(C)C)C[C@@H]1C,-1,2
C[C@@H]1CN([C@H](C)CO)C(=O)c2cccc(NC(=O)c3cnccn3)c2O[C@H]1CN(C)Cc1ccc(-c2ccccc2)cc1,-25,-18
Cc1noc(C)c1S(=O)(=O)Nc1ccc2c(c1)C(=O)N([C@H](C)CO)C[C@@H](C)[C@@H](CN(C)Cc1ccccc1)OCCCC[C@H](C)O2,u,x
Fc1cccc(CN2[C@@H]3CNC[C@H]2C3c2ccc(/C=C/c3ccccc3)cc2)c1 (stereo partly drawn),7,13
C[C@@H]1CN([C@H](C)CO)C(=O)c2cc(NS(=O)(=O)c3cccs3)ccc2O[C@@H]1CN(C)Cc1ccc(C(=O)Nc2ccccc2N)cc1,-10,-12
COc1cccc(NC(=O)N(C)C[C@@H]2OCc3cnnn3CCCC(=O)N([C@H](C)CO)C[C@H]2C)c1,1,-1
COc1ccc(NC(=O)N[C@@H]2CC[C@H](CCn3cc(C4(O)CCCC4)nn3)O[C@H]2CO)cc1,7,6
CCCC(=O)N1CCC2(CC1)CN(Cc1ccccc1F)[C@H](CO)c1c2c2ccc(OC)cc2n1C,1,-3
CO[C@H]1CN(C)C(=O)c2cc(NC(=O)c3ccccc3F)ccc2OC[C@H](C)N(C(C)=O)C[C@H]1C,8,12
C[C@@H]1CN([C@H](C)CO)C(=O)c2cc(NS(=O)(=O)c3ccccc3)ccc2O[C@@H]1CN(C)C(=O)Nc1ccc(F)cc1,20,23
C[C@H](CO)N1C[C@H](C)[C@@H](CN(C)C(=O)C2CCOCC2)Oc2cc(C3=CCCCC3)ccc2S1(=O)=O,3,6
C[C@@H]1CN([C@H](C)CO)C(=O)c2cc(NC(=O)CCC(F)(F)F)ccc2O[C@H]1CN(C)CC1CCCCC1,-2,-1
COc1ccc(NC(=O)N(C)C[C@@H]2Oc3ccc(NS(=O)(=O)c4cn(C)cn4)cc3CC(=O)N([C@H](C)CO)C[C@H]2C)cc1,19,8
CC(C)CC#Cc1cnc2c(c1)C(=O)N([C@H](C)CO)C[C@@H](C)[C@@H](CN(C)S(=O)(=O)c1cn(C)cn1)O2,-9,16

# Some of the entries above in a different format.
mol | Vaccinia stage | Vaccinia stage Venus
C[C@@H]1CN([C@H](C)CO)C(=O)c2cccc(NC(=O)c3cnccn3)c2O[C@H]1CN(C)Cc1ccc(-c2ccccc2)cc1 | -25 | -18
Cc1noc(C)c1S(=O)(=O)Nc1ccc2c(c1)C(=O)N([C@H](C)CO)C[C@@H](C)[C@@H](CN(C)Cc1ccccc1)OCCCC[C@H](C)O2 | u | x
Fc1cccc(CN2[C@@H]3CNC[C@H]2C3c2ccc(/C=C/c3ccccc3)cc2)c1 (stereo partly drawn) | 7 | 13
C[C@@H]1CN([C@H](C)CO)C(=O)c2cc(NS(=O)(=O)c3cccs3)ccc2O[C@@H]1CN(C)Cc1ccc(C(=O)Nc2ccccc2N)cc1 | -10 | -12
COc1cccc(NC(=O)N(C)C[C@@H]2OCc3cnnn3CCCC(=O)N([C@H](C)CO)C[C@H]2C)c1 | 1 | -1
COc1ccc(NC(=O)N[C@@H]2CC[C@H](CCn3cc(C4(O)CCCC4)nn3)O[C@H]2CO)cc1 | 7 | 6
CCCC(=O)N1CCC2(CC1)CN(Cc1ccccc1F)[C@H](CO)c1c2c2ccc(OC)cc2n1C | 1 | -3
CO[C@H]1CN(C)C(=O)c2cc(NC(=O)c3ccccc3F)ccc2OC[C@H](C)N(C(C)=O)C[C@H]1C | 8 | 12
C[C@@H]1CN([C@H](C)CO)C(=O)c2cc(NS(=O)(=O)c3ccccc3)ccc2O[C@@H]1CN(C)C(=O)Nc1ccc(F)cc1 | 20 | 23
C[C@H](CO)N1C[C@H](C)[C@@H](CN(C)C(=O)C2CCOCC2)Oc2cc(C3=CCCCC3)ccc2S1(=O)=O | 3 | 6
C[C@@H]1CN([C@H](C)CO)C(=O)c2cc(NC(=O)CCC(F)(F)F)ccc2O[C@H]1CN(C)CC1CCCCC1 | -2 | -1
COc1ccc(NC(=O)N(C)C[C@@H]2Oc3ccc(NS(=O)(=O)c4cn(C)cn4)cc3CC(=O)N([C@H](C)CO)C[C@H]2C)cc1 | 19 | 8
CC(C)CC#Cc1cnc2c(c1)C(=O)N([C@H](C)CO)C[C@@H](C)[C@@H](CN(C)S(=O)(=O)c1cn(C)cn1)O2 | -9 | 16

# More compounds follow:
SMILES,Vaccinia stage,Vaccinia stage Venus
C[C@H](CO)N1C[C@H](C)[C@@H](CN(C)C(=O)Nc2ccc(C(F)(F)F)cc2)OCCCC[C@H](C)Oc2ccc(NC(=O)c3ccncc3)cc2C1=O,u,x
CCCN(C)C[C@H]1OCCCC[C@@H](C)Oc2ccc(NS(=O)(=O)c3ccc(C)cc3)cc2C(=O)N([C@H](C)CO)C[C@H]1C,-4,-9
COCC(=O)N1[C@H](C#N)[C@H](c2ccc(-c3cccc(F)c3)cc2)[C@H]1CO,3,-4
C[C@@H]1CN([C@@H](C)CO)C(=O)c2cc(Br)cnc2O[C@@H]1CN(C)C(=O)NC1CCCC1,7,5
CC(C)NC(=O)N[C@H]1CC[C@@H](CCNC(=O)C2CCCC2)O[C@H]1CO,-3,-1
C[C@@H]1CN([C@@H](C)CO)C(=O)c2cc(NC(=O)Nc3ccc(F)cc3)ccc2O[C@@H]1CN(C)Cc1ccc(C(=O)Nc2ccccc2N)cc1,3,-2
Cc1cc(C(=O)Nc2cccc3c2O[C@H](CN(C)CC2CCCCC2)[C@@H](C)CN([C@@H](C)CO)C3=O)n(C)n1,-10,-7
O=C(C[C@@H]1C=C[C@@H](NC(=O)c2ccccn2)[C@H](CO)O1)NCc1cccc(F)c1,-5,-3
CCCNC(=O)N(C)C[C@@H]1Oc2cc(-c3cccnc3)ccc2S(=O)(=O)N([C@H](C)CO)C[C@@H]1C,8,3
O=C(Nc1ccccc1)Nc1ccc2c(c1)[C@@H]1C[C@@H](CC(=O)N3CCCCC3)O[C@@H](CO)[C@@H]1O2,-5,-8
O=C(C[C@H]1CC[C@H](NC(=O)Nc2ccc3c(c2)OCO3)[C@@H](CO)O1)NCc1ccc(Cl)cc1,-5,4
C/C=C/c1ccc([C@@H]2[C@H](CO)N(CC3CC3)C23CN(C(=O)COC)C3)cc1,10,13
CNC[C@@H]1Oc2c(NC(=O)Nc3ccc(C(F)(F)F)cc3)cccc2C(=O)N([C@@H](C)CO)C[C@H]1C,-15,-9
C[C@H](CO)N1C[C@H](C)[C@H](CN(C)Cc2ccc(C(=O)Nc3ccccc3N)cc2)Oc2ccc(NC(=O)CCN3CCOCC3)cc2C1=O,15,4
CCCNC(=O)Nc1ccc2c(c1)OC[C@H](C)N(Cc1cncnc1)C[C@@H](C)[C@@H](OC)CN(C)C2=O,-1,8
CO[C@H](CN(C)Cc1cc(F)ccc1F)[C@H](C)CN([C@@H](C)CO)S(=O)(=O)c1ccc(Cl)cc1,-22,-17
C[C@@H]1CN([C@H](C)CO)C(=O)c2cc(-c3ccccc3F)cnc2O[C@H]1CN(C)C,-5,0
CCC(=O)N[C@H]1C=C[C@H](CC(=O)NCCN2CCCCC2)O[C@H]1CO,-4,-7
O=C(C[C@@H]1C=C[C@@H](NS(=O)(=O)c2ccc(F)cc2)[C@@H](CO)O1)NC1CCCCC1,1,5
C[C@@H]1CN([C@@H](C)CO)C(=O)Cc2cc(NS(=O)(=O)c3ccc(Cl)cc3)ccc2O[C@@H]1CN(C)S(=O)(=O)c1ccc(F)cc1,-11,-5
O=C(N[C@H]1CC[C@H](CC(=O)N2CCc3ccccc3C2)O[C@H]1CO)C1CCC1,9,3
Cc1noc(C)c1NC(=O)N(C)C[C@@H]1Oc2ncc(Br)cc2C(=O)N([C@@H](C)CO)C[C@@H]1C,7,2
C/C=C/c1cccc(-c2nc(C(=O)N3CCCCC3)cc3c2[C@H](CCO)N(C(=O)NC(C)C)C3)c1,-4,4
CCNC(=O)Nc1ccc2c(c1)C(=O)N(C)[C@@H]1CC[C@H](CC(=O)Nc3ccccc3)O[C@@H]1CO2,-6,-1
CC(C)CC#Cc1cnc2c(c1)C(=O)N([C@@H](C)CO)C[C@H](C)[C@H](CN(C)C(=O)Nc1cccc(F)c1)O2,-11,-3
# Next part.
SMILES,Vaccinia stage,Vaccinia stage Venus
C[C@H]1CCCCO[C@H](CN(C)C(=O)Nc2ccc(C(F)(F)F)cc2)[C@@H](C)CN([C@@H](C)CO)C(=O)c2cc(NS(=O)(=O)c3cn(C)cn3)ccc2O1,u,x
C[C@H]1CN([C@@H](C)CO)C(=O)Cc2cc(NC(=O)Nc3ccccc3)ccc2O[C@H]1CN(C)Cc1ccc(C(F)(F)F)cc1,u,x
COc1ccccc1NC(=O)N1C[C@@H]2N[C@H](C1)C2c1ccc(-c2ccc(C#N)cc2)cc1 (stereo partly drawn),u,-19
COc1ccc(S(=O)(=O)Nc2ccc3c(c2)C(=O)N([C@@H](C)CO)C[C@@H](C)[C@@H](CN(C)Cc2ccc(C(=O)O)cc2)OCCCC[C@H](C)O3)cc1,34,11
O=C(C[C@@H]1CC[C@@H]2[C@H](COC[C@H](O)CN2S(=O)(=O)c2cccc(Cl)c2)O1)NCCCN1CCOCC1,22,14
CN(C)CC#Cc1ccc([C@H]2[C@@H](CO)N3CCCCN(C(=O)Nc4ccccc4F)C[C@H]23)cc1,-3,-3
CCCNC(=O)N1CC2(CN(C(=O)C3CCOCC3)C2)c2c([nH]c3cc(OC)ccc23)[C@H]1CO,15,-3
C[C@H](CO)N1C[C@H](C)[C@H](CN(C)C(=O)c2ccccc2)OCCCC[C@H](C)Oc2ccc(NC(=O)Nc3ccccc3)cc2C1=O,-14,-4
CCCNC(=O)N1[C@H](CO)[C@H](c2ccc(-c3ccc(C#N)cc3)cc2)[C@@H]1CNC,-8,5
Cc1ccc(S(=O)(=O)N(C)C[C@@H]2Oc3ccc(N(C)C)cc3CC(=O)N([C@H](C)CO)C[C@@H]2C)cc1,1,-10
CCCC#Cc1ccc([C@H]2[C@@H](CO)N3CCCCN(Cc4ccncc4)C[C@@H]23)cc1,-9,-1
COc1ccc(S(=O)(=O)N(C)C[C@@H]2Oc3ccc(NS(=O)(=O)c4ccc(C)cc4)cc3C(=O)N([C@@H](C)CO)C[C@H]2C)cc1,9,9
O=C(Nc1ccccc1)N1CCCCN2[C@H](CO)[C@H](c3ccc(-c4ccccc4F)cc3)[C@H]2C1,u,x
O=C(c1ccc(F)cc1)N1CC(=O)N2[C@@H](CO)[C@@H](c3ccc(C#CC4CC4)cc3)[C@@H]2C1,-14,-9
CO[C@H]1CN(C)C(=O)c2cc(NC(C)=O)ccc2OC[C@@H](C)N(C(=O)Cc2cccnc2)C[C@H]1C,9,12
Cc1ccc(S(=O)(=O)N(C)C[C@@H]2Oc3ccc(NC(=O)Nc4ccc(F)cc4)cc3C(=O)N([C@@H](C)CO)C[C@@H]2C)cc1,-3,-10
O=C(Nc1ccc(Cl)cc1)N[C@@H]1CC[C@H](CCn2cc(Cc3ccccc3)nn2)O[C@H]1CO,-23,-24
COCC(=O)N1CC2(CCN(Cc3ccccc3)CC2)c2c(n(C)c3cc(OC)ccc23)[C@@H]1CO,-14,-18
COc1cccc(-c2cnc3c(c2)C(=O)N([C@H](C)CO)C[C@@H](C)[C@H](CN(C)C(=O)Nc2ccccc2F)O3)c1,10&3,8&3
CCC(=O)Nc1ccc2c(c1)C(=O)N(C)C[C@@H](OC)[C@H](C)CN(C(=O)c1cccnc1)[C@@H](C)CO2,16,12
COc1ccc(CN(C)C[C@H]2Oc3ccc(NC(=O)Nc4c(C)noc4C)cc3C(=O)N([C@H](C)CO)C[C@H]2C)cc1,16,11
C[C@H](CO)N1C[C@H](C)[C@H](CN(C)Cc2ccncc2)OCCCC[C@H](C)Oc2ccc(NC(=O)C3CCCCC3)cc2C1=O,-11,-5
Cc1ccc(S(=O)(=O)Nc2ccc3c(c2)C(=O)N([C@H](C)CO)C[C@@H](C)[C@@H](CN(C)C(=O)C2CCCCC2)OCCCC[C@@H](C)O3)cc1,u,x
C[C@H](CO)N1C[C@H](C)[C@H](CN(C)Cc2ccc(-c3ccccc3)cc2)Oc2ccc(NC(=O)C3CCCCC3)cc2CC1=O,-33,-21
C[C@H](NC(=O)C[C@H]1C[C@@H]2c3cc(NC(=O)Cc4ccncc4)ccc3O[C@@H]2[C@H](CO)O1)c1ccccc1,-3,6
CO[C@@H](CN(C)S(=O)(=O)c1cn(C)cn1)[C@H](C)CN(C(=O)Nc1ccc(F)cc1)[C@H](C)CO,12,8
